Source: PubChem BioAssay (National Center for Advancing Translational Sciences (NCATS))
NS1 function inh: influenza NS1 inhibition | S. cerevisiae slowed by influenza A NS1, growth recovery by OD600 | Potency, µM (series often up to 46.1 µM), for inactives: top-dose activity, positive = more growth | 0.4% of 270,000 active; active means well fitted rising curve with a large enough effect; inconclusive means small, poorly fitted or top-dose-only effect; inactive means no such curve, though single readings can be large or run the other way; further: nearly all actives have a fitted effect of over 50% in size
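Read-out: OD600 growth recovery of NS1-expressing budding yeast. Cells grown overnight at 30C in -URA glucose medium, washed, resuspended and diluted 1:100 in 2% galactose assay medium, pH 6.0. Same strain lacking NS1 served as positive control.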
Cruzain inh Det: inhibitors of Trypanosoma cruzi cruzain with detergent. P25779. purified cruzain, Z-FR-AMC fluorescence, 0.01% Triton. Potency, µM, without a hit: max response, negative = inhibition, most hits filed as inhibitors. 0.43% of 200,000 active. AID 1478;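 further: plate controls were neutral wells for no effect and buffer without enzyme for full effect; nearly all actives have a fitted effect of over 40% in size; top concentration of the series not given in the record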
Target sequence (P25779 123-467 limits assumed): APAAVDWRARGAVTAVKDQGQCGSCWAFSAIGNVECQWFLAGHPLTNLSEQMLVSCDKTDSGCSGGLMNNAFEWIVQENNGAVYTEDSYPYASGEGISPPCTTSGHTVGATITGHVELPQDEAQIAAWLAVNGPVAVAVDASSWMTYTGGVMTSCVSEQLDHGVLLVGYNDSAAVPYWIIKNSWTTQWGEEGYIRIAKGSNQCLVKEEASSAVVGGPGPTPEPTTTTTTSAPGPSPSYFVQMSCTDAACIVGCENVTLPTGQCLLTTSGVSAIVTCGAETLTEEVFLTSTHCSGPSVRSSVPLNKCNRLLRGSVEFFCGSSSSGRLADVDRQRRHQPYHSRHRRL
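Z-FR-AMC hydrolysis (2 uM substrate) by cruzain (1.5 nM) monitored kinetically at ex 360/em 450 nm after 15 min room-temperature compound exposure; 0.01% Triton X-100, pH 5.5, 5 mM DTT.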
Marburg entry inh: blocks Marburg virus binding to or entry into cells; AID 540276; Potency, µM (series often up to 37.8 µM), without a hit: top-dose activity change, negative = inhibition, usual class: inhibitors; Marburg virus pseudotyped entry inhibition, cell reporter; control for the full effect not named in the record; about a third of the inactives were read at about 46 µM; 1.8% of 300,000 active; active = well fitted inhibition curve with a large enough effect; inconclusive = small, poorly fitted or top-dose-only effect, or effect the other way; inactive = flat fitted curve, though single readings scatter; tested in HEK293 cells; about a fifth of its hits are not listed in these tables; further: on the % scale 0 is the no-effect control and ±100 the full control effect; luciferase read-out
RE007 growth inh: less growth of the S. pombe RE007 Vpr strain. S. pombe RE007 Vpr strain, BacTiter-Glo ATP luminescence, 24 h; control for the full effect not named in the record. Potency, µM (highest dose often 92.2 µM), for the others: at the highest dose activity change, negative = less growth. 0.21% of 360,000 active. AID 651644; active = well fitted falling curve with a large enough effect; inconclusive = small, poorly fitted or top-dose-only effect; inactive = no such curve, though single readings can be large or run the other way;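 further: on the % scale 0 is the no-effect control and ±100 the full control effect; nearly all actives have a fitted effect of over 50% in size; the assay follows cell death caused by Vpr and the record does not say whether a fall means rescue or toxicity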
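Fission yeast strain RE007, carrying one chromosomally integrated HIV-1 vpr copy, was seeded at OD 0.01 in PMG+AL medium with 23 nL pinned compound. After 24 h at 30 °C and 99% humidity, viability was read by BacTiter-Glo luminescence.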
2A StopGo: lowers the luciferase signal of an FMDV 2A StopGo reporter. human cells with a luciferase reporter of 2A StopGo recoding; control for the full effect not named in the record. Potency, µM (titrated, usually from 57.9 µM), for inactives: at the top dose signal change, negative = less light. 1.2% of 410,000 active. AID 1159524; active = well fitted falling curve with a large enough effect; inconclusive = small, poorly fitted or top-dose-only effect; inactive = no such curve, though single readings can be large or run the other way; tested in HEK293T cells; further: on the % scale 0 is the no-effect control and ±100 the full control effect; nearly all actives have a fitted effect of over 45% in size; luciferase light after 4 h
Lassa entry inh: Lassa virus entry inhibition. Lassa virus pseudotype entry inhibition, cell reporter; control for the full effect not named in the record. Potency, µM (doses to about 37.9 µM), for inactives: at the top dose activity change, negative = inhibition, most hits filed as inhibitors. 1.2% of 300,000 active; active means well fitted inhibition curve with a large enough effect; inconclusive means small, poorly fitted or top-dose-only effect, or effect the other way; inactive means flat fitted curve, though single readings scatter; tested in HEK293 cells; further: on the % scale 0 is the no-effect control and ±100 the full control effect; nearly all actives have a fitted effect of over 50% in size; luciferase read-out
SARS PLpro yeast: SARS-CoV PLP inhibition in yeast. 0.19% of 330,000 active. Potency, µM (titrated, usually from 32.9 µM), inactives show top-dose activity, positive = growth rescue. S. cerevisiae expressing SARS-CoV PLpro, growth rescue; control for the full effect not named in the record; active means well fitted rising curve with a large enough effect; inconclusive means small, poorly fitted or top-dose-only effect; inactive means no such curve, though single readings can be large or run the other way; further: 0% is about no effect; nearly all actives have a fitted effect of over 55% in size; growth read by luminescence after 48 h
Cruzain noTriton: cruzain (T. cruzi) inhibition without detergent | purified cruzain, Z-FR-AMC fluorescence, no detergent | P25779 | 2.3% of 200,000 active | Potency, µM, without a hit: max response, negative = inhibition, usual class: inhibitors;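 further: plate controls were enzyme without inhibitor for no effect and buffer without enzyme for full effect; nearly all actives have a fitted effect of over 40% in size; top concentration of the series not given in the record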
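Purified cruzain at 1.5 nM, pre-incubated 15 min with compound at room temperature in 100 mM sodium acetate pH 5.5, 5 mM DTT, 0.00005% Triton X-100. Reaction started with 2 uM Z-FR-AMC; AMC fluorescence increase over 60 s gives rate.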
An asterisk follows results filed as active; ? = inconclusive; . = not tested or not shown; & = joins results of further samples; [ ] = another dose, or the depositor's remark. Unless noted, the call rests on the fitted dose curve; in most records, active means well fitted curve in the direction sought with a large enough effect; inconclusive means small, poorly fitted or top-dose-only effect, or another doubt; inactive means no such curve, though single readings can be large; an effect the other way counts as inactive or inconclusive. Potency means the concentration at half of the fitted maximal effect.

SMILES	NS1 function inh	Cruzain inh Det	Marburg entry inh	RE007 growth inh	2A StopGo	Lassa entry inh	SARS PLpro yeast	Cruzain noTriton
COCCNC(=O)CSc1nc(N)c(NC(=O)c2ccccc2F)c(=O)[nH]1	12%	0.7%	?	24%	-13%	-16%	-25%	-5%
O=c1cc(CN2CCN(Cc3ccc(F)cc3)C(CCO)C2)[nH]c2ccccc12 (stereo not given)	22%	.	-1%[46.1 µM]	-26%	-6%	-12%[46.1 µM]	-5%	.
Cc1ccc(N2C(=O)N(CC(=O)Nc3ccc(C)cc3[N+](=O)[O-])C(=O)C2C)cc1 (stereo not given)	.	.	7%	-26%	13%	0%	-16%	.
CCOc1ccccc1N1CN(C2CCCCC2)CNC1=S	-2%	.	8%[46.1 µM]	-25%	53%[activator]	-10%[46.1 µM]	1%	.
NC(=O)c1ccccc1NC(=O)COc1ccc(Cl)cc1	-9%	.	.	0%	29%	.	-2%	.
CCOC(=O)c1cc(-c2ccccc2)n(CCCC(=O)Nc2cc(C)ccc2OC)c1C	.	-6.0%	.	.	-18%	-13%[46.1 µM]	.	4%
Cc1ccc(OCCCCCN2CCOCC2)c(Cl)c1	.	.	?	2%	47%[activator]	13%[46.1 µM]	.	.
CCc1ccc(N2CC(C(=O)N3CCCCCC3)CC2=O)cc1 (stereo not given)	15%	.	11%[46.1 µM]	9%	23%	-2%	5%	.
Cc1c(NC(=O)Nc2ccc(C(C)(C)C)cc2)c(=O)n(-c2ccccc2)n1C	5%	.	4%[46.1 µM]	-3%	-18%	22%[46.1 µM]	-1%	.
COc1cc(OC)c(OC)cc1CNC(=O)c1ccc(COc2ccccc2)cc1	-15%	.	-18%[46.1 µM]	-20%	-4%	10%[46.1 µM]	-1%	.
O=C(c1ccc(C(F)(F)F)cc1)N1CCC(=O)N(C(COCc2ccccc2)Cc2ccccc2)CC1 (stereo not given)	-25%	-3.7%	-80%	-23%	-16%	?	-11%	?
COc1ccc(C(=O)N/N=C\c2coc3ccc(Cl)cc3c2=O)cc1	7%	.	.	14%	?	.	?	.
Cc1ccc(CNn2cnnc2SCc2ccc(F)cc2)cc1	-1%	-4.4%	?	-13%	?	-4%	-3%	5%
Cc1ccc(CCN2CC(C(=O)NCCCN3CCN(C)CC3)CC2=O)cc1 (stereo not given)	-6%	5.8%	.	-3%	-10%	.	-2%	-5%
COc1ccccc1CNC(=O)COC(=O)c1cccc(S(=O)(=O)N2CCCCC2)c1	-13%	.	11%	-5%	2%	7%	-1%	.
CCc1ccc(NC(=O)CSc2nc3ccccc3c(=O)n2CCCN2CCC(C)CC2)cc1	.	.	?	11%	?	?	0%	.
O=C(c1ccco1)N(CCC(c1ccccc1)c1ccco1)Cc1ccc(F)cc1 (stereo not given)	3%	0.3%	?	-5%	?	23µM*	-21%	11%
O=C(NCC1(N2CCCCC2)CCCCC1)c1ccc(S(=O)(=O)N2CCCC2)cc1	9%	.	-23%	-6%	-1%	5%	0%	.
CC1CCN(C(=O)COC(=O)c2ccc3c(c2)OCCO3)CC1	.	.	1%	0%	23%	-18%	-8%	.
Cc1cc(NC(=O)CN2C(=O)NC(C)(c3ccccc3Cl)C2=O)no1 (stereo not given)	.	.	-6%[46.1 µM]	1%	17%	-2%[46.1 µM]	1%	.
Cc1ccc(NC(=O)CCS(=O)(=O)c2cc(Br)cc3c2N(C(=O)C2CC2)CC3)cc1	.	0.1%	1%[46.1 µM]	.	-12%	-2%[46.1 µM]	.	13%
COc1ccc(-c2cc(-c3ccccc3)nc(Cl)n2)cc1OC	-25%	.	?	7%	?	?	0%	.
Cc1nc2nc(CSc3nc4ccccc4s3)cc(=O)n2[nH]1	-1%	-4.9%	10%	-2%	14%	-17%	-1%	-1%
COC(=O)c1ccc(OCC(O)CN2CCOCC2)cc1 (stereo not given)	5%	.	.	-11%	-8%	.	3%	.
COc1cccc(C2Oc3ccccc3C3CC(c4cccs4)=NN32)c1 (stereo not given)	-81%	.	16%[46.1 µM]	?	20%	27%	-3%	.
SMILES	NS1 function inh	Cruzain inh Det	Marburg entry inh	RE007 growth inh	2A StopGo	Lassa entry inh	SARS PLpro yeast	Cruzain noTriton
Cc1ccc2c(c1)c(=O)c1c3n2CCN(CC#N)C3CC1 (stereo not given)	4%	.	19%[46.1 µM]	-6%	-4%	18%[46.1 µM]	-3%	.
COc1ccccc1Nc1c2c(nc3ccc(NC(=O)c4ccc(N(C)C)cc4)cc13)CCCC2	.	-25%	3.2µM*	.	-27%	?	.	?
Cc1ccc(C)c(S(=O)(=O)c2nnn3c2nc(NC(C)C)c2sccc23)c1	.	-5.2%	.	.	?	-23%[46.1 µM]	.	14%
Nc1c(C(=O)NCCc2ccc(Cl)cc2)sc2ccc(S(=O)(=O)N3CCCCC3)cc12	?	-13%	0%	.	.	.	-12%	?
O=P(OCC1CC1)(c1ccccc1)c1ccccc1	4%	0.5%	-11%	12%	-13%	12%	-14%	-11%
Cc1cc(C)cc(NS(=O)(=O)c2c(C(=O)N3CCOCC3)c(C)n(C)c2C)c1	7%	.	-15%[46.1 µM]	6%	7%	10%[46.1 µM]	-4%	.
COc1ccccc1N1CCN(c2ncnc3c2cnn3-c2ccc(C)cc2)CC1	.	0.6%	.	.	?	?	.	-2%
CC(=O)c1cccc(NC(=O)COc2nsnc2N2CCOCC2)c1	-5%	1.7%	?	7%	?	2%	2%	10%
Cc1oc(-c2ccc(Cl)cc2)cc1C(=O)O	-135%	.	?	-4%	-1%	-15%[46.1 µM]	-10%	.
Cc1ccc(SCCC(=O)N(C)CC(=O)Nc2c(C)cccc2C)cc1	-2%	.	6%	1%	-14%	1%	7%	.
Cc1ccc(/C=C2/C(=O)ON=C2c2ccccc2)o1	1%	.	.	4%	?	.	1%	.
CCOC(=O)c1c(NC(=O)CN2CCOCC2)sc2c1CC(C)(C)OC2	-4%	-2.5%	-18%	7%	-9%	-3%	0%	?
CCCCc1nc2ccccc2n1CC(=O)NN	-8%	1.1%	19%	0%	-15%	14%	-12%	-2%
Cc1ccc(Sc2c(C)nn(C(=O)COc3ccccc3)c2C)cc1	.	-1.7%	7%[46.1 µM]	.	5%	-29%[46.1 µM]	.	8%
NC(=O)[C@@H]1CCOc2c(F)cc([N+](=O)[O-])cc2C(=O)N[C@@H](CO)C(=O)NCC(=O)N1	?	1.4%	5%	2%	-12%	1%	0%	15%
CCn1cc(CN2N=C(C)CC2c2ccccc2)c(C)n1 (stereo not given)	-8%	.	?	-3%	-15%	15%[46.1 µM]	2%	.
Cc1cc(NC(=O)CSC2=NS(=O)(=O)c3ccccc3N2)no1	.	.	26%	9%	-20%	22%	-6%	.
CNCCCOc1ccc(C(C)(C)c2ccccc2)cc1	4%	1.8%	0%	.	.	.	-13%	?
COc1cccc2cc(-c3nnc(SCC(=O)NCCc4ccccc4)n3C)oc12	0%	5.6%	8%[46.1 µM]	-20%	-14%	4%	-5%	2%
O=C(NCCOC(=O)c1ccccc1C(=O)OCCNC(=O)c1cccnc1)c1cccnc1	-1%	-2.3%	-2%	0%	0%	9%	-6%	0%
CC(C)C(=O)N1CCN(CCN2C(=O)c3cccc4cccc(c34)C2=O)CC1	-5%	.	.	3%	-26%	.	-1%	.
Cn1c(CNC(=O)c2ccccc2F)nnc1SCc1ccc(Cl)cc1	0%	.	-18%[46.1 µM]	2%	42%[activator]	-12%[46.1 µM]	-1%	.
CC(C)COC(=O)/C(C#N)=C\c1ccc(-c2ccccc2Cl)o1	.	-1.2%	.	.	43%[activator]	-2%[46.1 µM]	.	-3%
COc1ccc(CCNC(=O)CCn2c(=O)[nH]c3cc(OC)c(OC)cc3c2=O)cc1OC	-1%	-2.5%	-11%&-11%	14%	-2%	6%	7%	14%
COC(=O)C(Cc1c[nH]c2ccccc12)NC(=O)C(C)C (stereo not given)	22%	2.7%	10%	4%	-15%	11%	-1%	-4%
SMILES	NS1 function inh	Cruzain inh Det	Marburg entry inh	RE007 growth inh	2A StopGo	Lassa entry inh	SARS PLpro yeast	Cruzain noTriton
COc1ccc(Cl)cc1C(=O)Nn1c(-c2cccs2)nc2ccccc2c1=O	12%	-6.3%	1%	10%	-20%	-2%	-6%	?
Cc1cccc(C(=O)Oc2cccc3c(O)cccc23)c1	-68%	.	.	?	-1%	.	-19%	.
O=C(O)c1cccnc1Sc1ncnc2sc3c(c12)CCC3	-9%	.	10%[46.1 µM]	-5%	-5%	19%	0%	.
COc1ccc(CCNC(=O)C(CCC(N)=O)NS(=O)(=O)c2ccc(Cl)cc2)cc1OC (stereo not given)	3%	.	.	4%	-14%	.	1%	.
CC(=O)Oc1ccccc1C1=NN(C(=O)/C=C/c2ccccc2)C(c2ccccc2)C1 (stereo not given)	17%	-7.4%	?	6%	0%	?	-26%	-13%
Cc1cccc(OC(C)C(=O)OCC(=O)Nc2sccc2C(N)=O)c1 (stereo not given)	.	.	0%	3%	-22%	?	-1%	.
CCOC(=O)c1cccc(NC(=O)CCS(=O)(=O)c2cccs2)c1	5%	-7.2%	?	8%	8%	-8%	-1%	-1%
O=C(CNC1CCCCC1)Nc1ccc([N+](=O)[O-])cc1C(=O)Nc1ccccc1F	1%	.	.	-1%	-6%	.	-3%	.
O=C1CCC(C(=O)OCC(=O)C23CC4CC(CC(C4)C2)C3)N1 (stereo not given)	-1%	2.7%	21%	21%	-14%	3%	4%	-3%
COc1ccc(NC(=O)Cn2c(=O)oc3ccccc32)cc1	1%	1.0%	.	5%	-12%&3%	15%[46.1 µM]	-4%	1%
C=CCn1c(SCC(=O)NCCc2ccccc2)nnc1C1CC1	.	.	6%	1%	8%	0%	0%	.
COCc1[nH][nH]c(=O)c1C=Nc1ccc(Oc2ccccc2)cc1	1%	-5.3%	-1%	7%	-15%	30%	1%[6.58 µM]	-1%
COc1ccccc1CNC(=O)COC(=O)c1ncc(Cl)c(Cl)c1Cl	.	.	-3%	-7%	-17%	9%[46.1 µM]	0%	.
